High-throughput results as filed in PubChem BioAssay.
Marburg entry inh – blocks Marburg virus binding to or entry into cells. Marburg virus pseudotyped entry inhibition, cell reporter; control for the full effect not named in the record; about a third of the inactives were read at about 46 µM. Potency, µM (highest dose often 37.8 µM), for the others: at the top dose activity change, negative = inhibition, most hits filed as inhibitors. 300,000 tested, 1.8% active. AID 540276; active = well fitted inhibition curve with a large enough effect; inconclusive = small, poorly fitted or top-dose-only effect, or effect the other way; inactive = flat fitted curve, though single readings scatter; tested in HEK293 cells; about a fifth of its hits are not listed in these tables; note: % is set by controls: 0 for no effect and ±100 for the full control effect; luciferase read-out
LASV entry inh – inhibitors of Lassa virus binding or cell entry | Lassa virus pseudotype entry inhibition, cell reporter; control for the full effect not named in the record | Potency, µM (highest dose often 37.9 µM), inactives show at the top dose activity change, negative = inhibition, actives largely listed as inhibitors | 300,000 tested, 1.2% active | AID 540256; active means well fitted inhibition curve with a large enough effect; inconclusive means small, poorly fitted or top-dose-only effect, or effect the other way; inactive means flat fitted curve, though single readings scatter; tested in HEK293 cells; note: % is set by controls: 0 for no effect and ±100 for the full control effect; nearly all actives have a fitted effect of over 50% in size; luciferase read-out
Cruzain Triton – blocks cruzain activity in presence of Triton detergent; purified cruzain, Z-FR-AMC fluorescence, 0.01% Triton; Potency, µM, inactives show max response, negative = inhibition, most hits filed as inhibitors; 200,000 tested, 0.43% active; P25779;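 note: plate controls were neutral wells for no effect and buffer without enzyme for full effect; nearly all actives have a fitted effect of over 40% in size; top concentration of the series not given in the record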
Target sequence (P25779 123-467 limits assumed): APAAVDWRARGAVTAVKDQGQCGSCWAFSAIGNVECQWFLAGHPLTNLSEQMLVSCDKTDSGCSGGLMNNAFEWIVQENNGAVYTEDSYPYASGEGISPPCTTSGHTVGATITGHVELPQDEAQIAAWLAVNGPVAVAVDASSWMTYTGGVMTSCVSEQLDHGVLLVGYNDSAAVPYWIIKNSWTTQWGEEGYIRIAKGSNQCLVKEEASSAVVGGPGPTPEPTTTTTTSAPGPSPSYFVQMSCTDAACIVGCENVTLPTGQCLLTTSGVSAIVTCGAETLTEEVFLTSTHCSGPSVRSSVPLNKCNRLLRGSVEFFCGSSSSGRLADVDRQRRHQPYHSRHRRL
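Z-FR-AMC hydrolysis (2 uM substrate) by cruzain (1.5 nM) monitored kinetically at ex 360/em 450 nm after 15 min room-temperature compound exposure; 0.01% Triton X-100, pH 5.5, 5 mM DTT.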
SARS PLpro yeast – SARS-CoV PLP inhibition in yeast | 330,000 tested, 0.19% active | Potency, µM (top dose mostly 32.9 µM), for inactives: at the top dose activity, positive = growth rescue | AID 485353 | S. cerevisiae expressing SARS-CoV PLpro, growth rescue; control for the full effect not named in the record; active means well fitted rising curve with a large enough effect; inconclusive means small, poorly fitted or top-dose-only effect; inactive means no such curve, though single readings can be large or run the other way; note: 0% is about no effect; nearly all actives have a fitted effect of over 55% in size; growth read by luminescence after 48 h
Cruzain inh noDet – blocks cruzain activity in detergent-free assay; P25779; purified cruzain, Z-FR-AMC fluorescence, no detergent; Potency, µM, without a hit: max response, negative = inhibition, hits mostly inhibitors; 200,000 tested, 2.3% active; AID 1476;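 note: plate controls were enzyme without inhibitor for no effect and buffer without enzyme for full effect; nearly all actives have a fitted effect of over 40% in size; top concentration of the series not given in the record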
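Purified cruzain at 1.5 nM, pre-incubated 15 min with compound at room temperature in 100 mM sodium acetate pH 5.5, 5 mM DTT, 0.00005% Triton X-100. Reaction started with 2 uM Z-FR-AMC; AMC fluorescence increase over 60 s gives rate.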
2A StopGo – lowers the luciferase signal of an FMDV 2A StopGo reporter | human cells with a luciferase reporter of 2A StopGo recoding; control for the full effect not named in the record | Potency, µM (series often up to 57.9 µM), without a hit: at the highest dose signal change, negative = less light | 410,000 tested, 1.2% active; active = well fitted falling curve with a large enough effect; inconclusive = small, poorly fitted or top-dose-only effect; inactive = no such curve, though single readings can be large or run the other way; tested in HEK293T cells; note: % is set by controls: 0 for no effect and ±100 for the full control effect; nearly all actives have a fitted effect of over 45% in size; luciferase light after 4 h
NS1 function inh – inhibitors of influenza NS1 protein function; S. cerevisiae slowed by influenza A NS1, growth recovery by OD600; Potency, µM (titrated, usually from 46.1 µM), without a hit: at the highest dose activity, positive = more growth; 270,000 tested, 0.4% active; AID 2326; active means well fitted rising curve with a large enough effect; inconclusive means small, poorly fitted or top-dose-only effect; inactive means no such curve, though single readings can be large or run the other way; note: nearly all actives have a fitted effect of over 50% in size
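Compounds were scored for reversing the slow growth caused by influenza A NS1 in S. cerevisiae, measured by optical density at 600 nm. Assay medium contained 2% galactose at pH 6.0; NS1-free yeast of the same strain were the positive control.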
RE007 growth inh – less growth of the S. pombe RE007 Vpr strain. S. pombe RE007 Vpr strain, BacTiter-Glo ATP luminescence, 24 h; control for the full effect not named in the record. AID 651644. Potency, µM (doses to about 92.2 µM), without a hit: top-dose activity change, negative = less growth. 360,000 tested, 0.21% active; active = well fitted falling curve with a large enough effect; inconclusive = small, poorly fitted or top-dose-only effect; inactive = no such curve, though single readings can be large or run the other way;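 note: % is set by controls: 0 for no effect and ±100 for the full control effect; nearly all actives have a fitted effect of over 50% in size; the assay follows cell death caused by Vpr and the record does not say whether a fall means rescue or toxicity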
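Fission yeast strain RE007, carrying one chromosomally integrated HIV-1 vpr copy, was seeded at OD 0.01 in PMG+AL medium with 23 nL pinned compound. After 24 h at 30 °C and 99% humidity, viability was read by BacTiter-Glo luminescence.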
* marks the source's active call; other numbers are inactive results; ? = inconclusive; · = no result given; & = joins results of further samples; [ ] = remark or other dose. Unless noted, calls come from the whole dose curve; as a rule, active = well fitted curve in the direction sought with a large enough effect; inconclusive = small, poorly fitted or top-dose-only effect, or another doubt; inactive = no such curve, though single readings can be large; an effect the other way counts as inactive or inconclusive. Potency is the fitted concentration of half-maximal effect.

| mol | Marburg entry inh | LASV entry inh | Cruzain Triton | SARS PLpro yeast | Cruzain inh noDet | 2A StopGo | NS1 function inh | RE007 growth inh |
| --- | --- | --- | --- | --- | --- | --- | --- | --- |
| COCC(=O)Nc1ccc([N+](=O)[O-])cc1C | 14% | 9% | 1.4% | 16% | -3% | -12% | 22% | -5% |
| CCOC(=O)C1(CCOc2ccccc2)CCN(Cc2nccn2CC)CC1 | ? | 1%[46.1 µM] | · | -1% | · | -16% | -4% | -21% |
| CC(Cc1cccnc1)NC(=O)CCc1nnc(-c2ccccc2)o1 (configuration not stated) | 0%[46.1 µM] | 1% | · | 0% | · | 26% | 2% | -19% |
| C=C(C)c1cccc(C(C)(C)NC(=O)Nc2ccc(C)cn2)c1 | -27% | -14% | -5.4% | -24% | 10% | -21% | 5% | -25% |
| Cc1ccc(NCN2C(=O)C3CC=CCC3C2=O)cc1 (configuration not stated) | 2% | 2% | -1.7% | 5% | 10% | 5% | 3% | -3% |
| CCOC(=O)C1(Cc2ccccc2)C(=O)Nc2ccccc21 (configuration not stated) | 5%[46.1 µM] | 3%[46.1 µM] | · | · | · | -5% | · | -2% |
| c1ccc(-c2nc(N3CCOCC3)s[n+]2-c2ccccc2)cc1 | ? | 12% | -0.4% | -12% | -16% | 13% | -3% | · |
| Cc1cc2ncn(/N=C/c3cccnc3)c2cc1C | -13% | -23% | -1.7% | -6% | -2% | -10% | -133% | -8% |
| O=c1[nH]c2ccccc2n2c(=S)[nH]nc12 | 4%[46.1 µM] | -14%[46.1 µM] | · | 1% | · | -3% | -2% | 7% |
| O=C(COC(=O)C1CCN(S(=O)(=O)c2cccc3cccnc23)CC1)c1ccccc1 | ? | 9% | -7.4% | -5% | 10% | -1% | 9% | 6% |
| CCOc1ccc(N2CC(C(=O)Nc3ccc(S(=O)(=O)N4CCOCC4)cc3)CC2=O)cc1 (configuration not stated) | 4%&4% | -1% | -1.9% | -11% | ? | 7% | -9% | 16% |
| CC(C)OC(=O)CCCNc1ccc([N+](=O)[O-])cc1[N+](=O)[O-] | -5% | 10% | -7.5% | -8% | -1% | -30% | -3% | 5% |
| Cc1cc(=O)n2c(nc3ccccc32)[nH]1 | ? | 22% | -4.0% | 5% | 1% | 4% | 7% | 8% |
| COc1ccccc1NC(=O)c1cc(-c2cc(OC)c(OC)c(OC)c2)nc2ccccc12 | 3.2µM* | ? | · | 7% | · | -22% | 10% | 9% |
| CCN1CCN(C(c2ccccc2)c2nnnn2Cc2ccccc2)CC1 (configuration not stated) | ? | -13% | 1.1% | -4% | 9% | 0% | 0% | -10% |
| CC(=O)N1CCN(c2ccc(NCc3cccc4ccccc34)cc2)CC1 | ? | ? | · | -7% | · | ? | 13% | -4% |
| C/C=C/c1ccc(OCCCCOc2c(OC)cccc2OC)c(OC)c1 | 0% | 5% | -7.5% | -20% | 20% | 0% | 16% | -9% |
| O=c1nc(NCc2ccccc2Cl)cn[nH]1 | 7% | 0% | -0.5% | 6% | 12% | · | 12% | 10% |
| Cn1c(=O)n(Cc2c(F)cccc2Cl)c(=O)c2c1nc1n2CCN1c1ccc(F)cc1 | · | 5%[46.1 µM] | -0.6% | · | 0% | -9% | · | · |
| Cc1cc(C)c(C)c(S(=O)(=O)NCC(=O)Nc2sc3c(c2C(N)=O)CCCC3)c1C | -8% | 2% | -2.1% | 1% | -4% | -22% | 21% | 15% |
| CCc1ccc(Nc2cc(=O)n(C3CCCCC3)c(=O)[nH]2)cc1 | 4% | ? | 8.7% | -5% | -26% | -25% | -6% | 2% |
| O=C(Nc1ccccc1OC(F)F)c1ccc(S(=O)(=O)N2CCOCC2)cc1 | 17% | 16% | · | 0% | · | -12% | -1% | -24% |
| CCC1(c2ccccc2)NC(=O)N(CC#N)C1=O (configuration not stated) | -7%[46.1 µM] | 3% | · | 3% | · | 3% | · | 0% |
| COc1ccc(C(=O)NCc2nnc(SCC(=O)NC3=NCCS3)n2C)cc1 | 16%[46.1 µM] | · | · | 7% | · | 6% | 4% | -3% |
| O=C(CSc1oc(-c2ccccc2)nc1S(=O)(=O)c1ccccc1)c1ccccc1 | ? | ? | -3.8% | · | ? | 21% | · | · |
| CCCNC(=S)N1CCC(NC(=O)c2ccc(C)cc2)CC1 | -26% | -4% | · | 1% | · | -19% | 11% | -17% |
| CN(CC(=O)NC1CCCCCC1)S(=O)(=O)c1ccc(Br)cc1 | -1% | 0% | · | 3% | · | -15% | 3% | -5% |
| COc1cccc(C2C(C(=O)Nc3ccccc3)=C(C)Nc3nc(-c4ccccc4)nn32)c1 (configuration not stated) | ? | -11%[46.1 µM] | -8.7% | · | ? | -14% | · | · |
| COc1ccc(C(=O)Nc2nc(-c3cccs3)c(NC(C)=O)s2)cc1 | -30% | -27% | 0.6% | 1% | -1% | 13% | 9% | -10% |
| CCOC(=O)c1cccc(N2C(=O)C3C(C(=O)NC4CC4)C4(C)C=CC3(O4)C2C(=O)NC(C)(C)C)c1 (configuration not stated) | 17%&17% | 2% | 4.5% | -4% | -5% | -15% | -5% | 14% |
| Brc1ccc2c(c1)C(C1=NCCN1)c1ccccc1CS2 (configuration not stated) | ? | ? | -2.6% | 19% | 6% | -19% | -5% | -21% |
| Cc1c(Cc2ccccc2)c(=O)oc2cc(OCC(=O)NC(Cc3ccc(Cl)cc3)C(=O)O)ccc12 (configuration not stated) | · | · | · | 7% | · | -24% | ? | -4% |
| COc1ccc(OC)c2sc(NC(=O)c3cccc(N4C(=O)CCC4=O)c3)nc12 | -15% | -3% | · | 1% | · | -8% | 15% | -16% |
| CCCNC(=S)Nc1cc2oc3ccccc3c2cc1OC | · | · | · | 12% | · | 30% | -1% | 7% |
| COc1cccc(C2CNC3(CCCC(C)C3)c3[nH]c4ccccc4c32)c1OC (configuration not stated) | · | · | · | 1% | · | -25% | 2% | 0% |
| Cc1ccc(C(=O)N2CCC(n3nccc3NC(=O)c3ccccc3C)CC2)cn1 | 2% | -11% | · | -1% | · | 14% | -18% | -6% |
| CCn1c(N2CCC(C)CC2)nc2c1c(=O)n(C)c(=O)n2C | · | · | 3.4% | 8% | 1% | ? | -37% | 7% |
| C=CCN(c1ccccc1C(=O)NCC(=O)OCC)S(=O)(=O)c1ccc(C)cc1 | 23% | -1% | · | 0% | · | -10% | 1% | 3% |
| COC(=O)c1ccc(COc2ccc(CNCc3ccc(Cl)cc3)cc2)cc1 | -8%[46.1 µM] | -3%[46.1 µM] | · | -4% | · | 5% | -7% | 0% |
| CCOC(=O)c1c(C)[nH]c(C(=O)CSc2nnnn2-c2ccc(C)cc2)c1C | ? | -1% | -5.6% | -3% | -8% | -14% | 10% | -10% |
| Cc1ccc(NC(=O)N2CCCC2C(=O)NCc2ccccc2Cl)cc1 (configuration not stated) | · | · | · | 0% | · | 28% | 3% | -16% |
| CCCC(C)C(=O)Nc1cccc(NC(C)=O)c1 (configuration not stated) | 7% | 1% | 1.6% | -2% | -4% | -23% | 4% | -14% |
| NS(=O)(=O)c1ccc(-c2ccc(/C=C3\SC(=O)NC3=O)o2)cc1 | · | · | · | 1% | · | 0% | 10% | -13% |
| CC(C)c1ccccc1NC(=O)COc1ccc(C(=O)NCCc2ccccc2)cc1 | ? | ? | 0.0% | -12% | ? | ? | 7% | -4% |
| O=S(=O)(Nc1cccc(-c2ccc(N3CCCC3)nn2)c1)c1ccc(F)cc1F | · | 14%[46.1 µM] | -3.1% | · | -10% | 47%[activator] | · | · |
| O=C(Nc1nc(-c2ccco2)c(-c2ccco2)s1)C1CC(=O)N(c2ccc3c(c2)OCCO3)C1 (configuration not stated) | -4% | -7% | -28% | -2% | -11% | ? | 10µM* | -10% |
| O=C(CCc1ccccc1)NNC(=O)C12CC3CC(CC(C3)C1)C2 | 22% | -16%[14.3 µM] | 6.1% | 3% | -12% | 68%[activator] | 6% | 5% |
| COc1cccc(-n2c(COc3ccccc3C)nnc2SCC(=O)O)c1 | 27% | 25% | 3.5% | -1% | ? | · | 8% | 9% |
| CC(C)NC(=S)N/N=C/c1cc(Br)ccc1O | ? | -9% | -7.9% | ? | -8% | -29% | -8% | -14% |
| C=CCNc1nc(N)c([N+](=O)[O-])c(Nc2ccccc2OC)n1 | -13%[46.1 µM] | -12%[46.1 µM] | · | 1% | · | -17% | -10% | 12% |
| CCNC(=O)C(C)Oc1ccc(Cl)cc1Cl (configuration not stated) | 17%[46.1 µM] | 7%[46.1 µM] | · | -1% | · | 0% | -2% | -5% |
| O=C(O)c1ccc(CNS(=O)(=O)c2ccc3ccccc3c2)cc1 | -3%[46.1 µM] | 13% | · | 2% | · | 26% | -9% | -4% |
| COc1ccc(-c2nc(CS(=O)CC(=O)NCc3ccc(F)cc3)c(C)o2)cc1 (configuration not stated) | 10%[46.1 µM] | -11%[46.1 µM] | · | -4% | · | 6% | 25% | -3% |
| CCN(CC)C(=O)COc1coc(CN2CCN(c3ccccc3F)CC2)cc1=O | 7%[46.1 µM] | -9%[46.1 µM] | · | -7% | · | -6% | 9% | 1% |

Five compounds picked at random from the list so far:
| mol | Marburg entry inh | LASV entry inh | Cruzain Triton | SARS PLpro yeast | Cruzain inh noDet | 2A StopGo | NS1 function inh | RE007 growth inh |
| --- | --- | --- | --- | --- | --- | --- | --- | --- |
| Cc1c(Cc2ccccc2)c(=O)oc2cc(OCC(=O)NC(Cc3ccc(Cl)cc3)C(=O)O)ccc12 (configuration not stated) | · | · | · | 7% | · | -24% | ? | -4% |
| CC(=O)N1CCN(c2ccc(NCc3cccc4ccccc34)cc2)CC1 | ? | ? | · | -7% | · | ? | 13% | -4% |
| O=C(Nc1nc(-c2ccco2)c(-c2ccco2)s1)C1CC(=O)N(c2ccc3c(c2)OCCO3)C1 (configuration not stated) | -4% | -7% | -28% | -2% | -11% | ? | 10µM* | -10% |
| COCC(=O)Nc1ccc([N+](=O)[O-])cc1C | 14% | 9% | 1.4% | 16% | -3% | -12% | 22% | -5% |
| CN(CC(=O)NC1CCCCCC1)S(=O)(=O)c1ccc(Br)cc1 | -1% | 0% | · | 3% | · | -15% | 3% | -5% |
